Source: PubChem BioAssay (ICCB-Longwood Screening Facility, Harvard Medical School)
Anaer choline gr: growth inhibitors of anaerobic choline-fed gram-negatives, minimal medium, absorbance; 55,000 compounds, 0.2% hits; AID 1963822, 2024; Gram-negative bacterium anaerobic choline minimal medium; stronger effect = lower value; many inactives read as strong as hits in the columns shown; calls only;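 active = growth z-score on choline under -2 at 7 or 20 h with little or no fall on glycerol, limits in tiers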;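 note: stock transfer was 300 nL into about 50 µL; the organism is E. coli; final concentration not given here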
Anaer choline gr early: recorded beside Anaer choline gr, whose call it bears; z-score; measured here: choline growth z-score, timepoint 1;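 score of optical density at 7 h as mean of two plates; lower means less growth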
An asterisk follows results filed as active; i = inactive; & = joins results of further samples. These rows are one share of the data; count on the stated rates, not on these rows.

Fields – Anaer choline gr	Anaer choline gr early
> CCC(C(=O)N1CCN(CC)CC1)N1C(=O)CCCc2ccccc21 (stereo unspecified)
→ i	-0.85
> CC1(C(=O)NC2CCCCC2)Cn2c(cc3ccccc32)C(=O)N1Cc1cccc(Cl)c1 (stereo unspecified)
→ i	0.8
> CNC(C)(C)c1nnnn1-c1cccc(C)c1
→ i	-1.54
> Cc1ccc2c(c1)C(=O)C(=O)N2Cc1ccccc1OC(C)C
→ i	0.62
> Cc1cccc(C(=O)N2CCN(c3cc(C)nc(N4CCCC4)n3)CC2)c1
→ i	-0.47
> c1ccc(-c2ccc(CNCC3CCNCC3)o2)cc1
→ i	-0.07
> C=CCn1c(=O)c(=O)n(CC(=O)N2CCC(N3CCCCC3)CC2)c2ccccc21
→ i	-0.64
> c1ccc(CNc2nc(C3CC3)nc3c2CCC3)nc1
→ i	-1.3
> COc1cc(NC(=O)c2cc(-c3ccccn3)n[nH]2)cc(OC)c1
→ i	2.56
> Cn1c(=O)c(C(=O)N2CCN(c3ccccn3)CC2)nn(-c2ccc(Cl)cc2)c1=O
→ i	1.49
> CCCCNC(=O)c1cn(C)c2c(c(C)nn2-c2ccc(F)cc2)c1=O
→ i	-0.02
> COc1ccccc1N1CCN(c2ccc(=O)n(CC(=O)Nc3ccc(F)cc3F)n2)CC1
→ i	-0.59
> Cc1oc2ncn(Cc3ccccc3F)c(=O)c2c1C
→ i	-0.8
> CCc1ccc(NC(=O)N2CCc3c(c(C(=O)NCc4ccccc4)nn3C)C2)cc1
→ i	0.6
> Cc1cccc(C)c1OCc1nnc2c3cnn(-c4ccccc4)c3ncn12
→ i	1.57
> Clc1ccccc1-c1nn2c(-c3ccccn3)nnc2s1
→ i	0.2
> O=C(c1cc2occc2c(Nc2ccc(Cl)cc2)n1)N1CCN(C2CCCCC2)CC1
→ i	-0.97
> CC(=O)Nc1ccc(N2C(=O)CN(S(C)(=O)=O)CC2(C)C(=O)NC2CCCC2)cc1 (stereo unspecified)
→ i	0.69
> CCCN(CCC)C(=O)Cn1c(=O)n(CCOC)c(=O)c2sc3ccccc3c21
→ i	0.57
> C=CCNc1oc(-c2ccc(F)cc2)nc1S(=O)(=O)c1ccc(Cl)cc1
→ i	1.62
> C=CCNC1=C2C[C@@H](C)C[C@H](OC)[C@H](O)[C@@H](C)/C=C(\C)[C@H](OC(N)=O)[C@@H](OC)/C=C\C=C(/C)C(=O)NC(=CC1=O)C2=O
→ i	0.71
> CCOc1ccc(OCC)c(S(=O)(=O)N2CCN(c3nc(C)cc(N4CCOCC4)n3)CC2)c1
→ i	-0.66
> CCC(C(=O)Nc1ccc(F)cc1)n1nc(-c2ccccc2)c2c(c1=O)CCCC2 (stereo unspecified)
→ i	-1.25
> CC1(C)C(=O)N(CC(=O)Nc2ccccc2F)c2ccccc21
→ i	-0.86
> CC1CCN(C(=O)c2ccc3c(c2)N(C)C(=O)C2CCCCN32)CC1 (stereo unspecified)
→ i	-0.77
> Cc1ccc2c(c1)C=C(C(=O)NC1CCCC1)C=CO2
→ i	0.33
> O=C(Cn1nnc(C(=O)O)c1C(=O)O)NC(=O)Nc1ccccc1F
→ i	0.09
> CCN(Cc1ccccc1)C(=O)c1cc(NC(=O)c2ccc(C)cc2)cnc1N1CCNCC1
→ i	-1.21
> NC1=NC(c2ccc(Cl)cc2)n2c(nc(=O)c3ccccc32)N1 (stereo unspecified)
→ i	-0.84
> C=CCn1c(=O)c(N2CCC(NC(=O)NCCCOCC)CC2)nc2cccnc21
→ i	0.35
> Cc1nn(-c2ccccc2)c2ccn(CC(=O)N3CCN(c4ccc(Cl)cc4)CC3)c(=O)c12
→ i	-1.03
> COc1ccc(OC)c(NC(=O)C2CCCN2S(=O)(=O)c2ccc3c(c2)NC(=O)CO3)c1 (stereo unspecified)
→ i	0.09
> CCOc1cc(C2CC(=O)Nc3c2c(C)nn3-c2ccc3nncn3n2)ccc1OC1CCCC1 (stereo unspecified)
→ i	-1.47
> CCc1cc(C(Nc2nc(C)cc(C)n2)c2ccc3c(c2)OCO3)c(NC(=O)c2ccccc2)s1 (stereo unspecified)
→ i	0.55
> Cc1ccccc1Nc1nnc(C(C)(C)C)c(=O)[nH]1
→ i	-0.95
> O=S1(=O)C[C@H](NCCC2=CCCCC2)[C@@H](S(=O)(=O)c2ccc(F)cc2)C1
→ i	-0.64
> COc1ccc2[nH]cc(CCNC(=O)c3sc4ncccc4c3-n3cccc3)c2c1
→ i	1.55
> O=C(c1ccc2c(c1)nnn2Cc1ccccc1)N1CCN(c2ccccn2)CC1
→ i	-0.25
> O=C(NCCCN1CCOCC1)c1cc2n(n1)CCCN(Cc1cccc(F)c1)C2=O
→ i	1.32
> CCn1c(C)c(/C=C/c2nc3ccccc3c(=O)n2CCCO)c2ccccc21
→ i	0.44
> C=CCSc1nc2nc3c(cn2n1)C(=O)CCC3
→ i	-0.76
> CC1=C(c2ccc(F)cc2)S(=O)(=O)N(CC(=O)Nc2c(C)cc(C)cc2C)C1=O
→ i	1.06
> COC(=O)c1ccccc1NC(=O)c1ccc2c(c1)CCN2S(C)(=O)=O
→ i	1.98
> COc1ccc(CCNC(=O)c2sc3ccccc3c2Cl)cc1
→ i	0.6
> Cc1ccc(-c2cc3c(SCC(=O)Nc4c(C)cc(C)cc4C)nccn3n2)cc1
→ i	-0.13
> COc1cc(-c2ccccc2)nc2ccc(NC(=O)NCc3ccccc3)cc12
→ i	1.18
> Cc1oc(C)c2c(=O)cc(-c3ccc4c(c3)OCO4)cc(OC(=O)c3ccccc3)c12
→ i	-0.39
> O=C(c1cccs1)N1CCC(Nc2ncnc3c2CCC3)C1 (stereo unspecified)
→ i	0.04
> CN(C)S(=O)(=O)c1ccc2c(c1)cc(C(=O)NCc1ccc(Cl)cc1)n2Cc1ccncc1
→ i	0.47
> N#Cc1nc(-c2ccc(S(=O)(=O)N3CCOCC3)cc2)oc1NC1CC1
→ i	0.85
> CC1CCN(C(=O)C2CC(=O)N(c3ccc4c(c3)CCN4C(=O)C3CC3)C2)CC1 (stereo unspecified)
→ i	-1.99
> CCOC(=O)CNC(=O)NCCn1c(-c2ccc(F)cc2)nc2ccccc21
→ i	0.09
> CC(O)c1ccc(-c2ccc(CNCC3CCNCC3)o2)cc1 (stereo unspecified)
→ i	0.27
> O=C(NCc1ccccc1Cl)C1CCN(C(=O)c2sccc2-n2cccc2)CC1
→ i	-0.49
> CCc1ccc(C2c3cccn3-c3c(c(C)nn3-c3ccccc3)CN2C(=O)Nc2ccc3c(c2)OCO3)cc1 (stereo unspecified)
→ i	-0.79
> Cn1c(=O)c2sccc2n2c(CCC(=O)NC3CCCCC3)nnc12
→ i	-0.22
> c1ccc(CN2CCN(c3nccn4nc(-c5ccccc5)cc34)CC2)cc1
→ i	1.73
> Cn1c(=O)c2cc(C(=O)N3CCCC3)sc2n(C)c1=O
→ i	0.47
> Cc1ccc(NC(=O)c2ccc3nnc(SCC(=O)Nc4ccc(Br)cc4)n3c2)cc1
→ i	-2.08
> COc1ccc(OCc2nnc3sc(-c4cc(C)on4)nn23)cc1
→ i	-0.27

As a short view, some entries already given:
Fields – Anaer choline gr	Anaer choline gr early
> Cc1nn(-c2ccccc2)c2ccn(CC(=O)N3CCN(c4ccc(Cl)cc4)CC3)c(=O)c12
→ i	-1.03
> COc1ccc(OC)c(NC(=O)C2CCCN2S(=O)(=O)c2ccc3c(c2)NC(=O)CO3)c1 (stereo unspecified)
→ i	0.09
> CCOc1cc(C2CC(=O)Nc3c2c(C)nn3-c2ccc3nncn3n2)ccc1OC1CCCC1 (stereo unspecified)
→ i	-1.47
> CCc1cc(C(Nc2nc(C)cc(C)n2)c2ccc3c(c2)OCO3)c(NC(=O)c2ccccc2)s1 (stereo unspecified)
→ i	0.55
> Cc1ccccc1Nc1nnc(C(C)(C)C)c(=O)[nH]1
→ i	-0.95

(listing goes on)
Molecule,Anaer choline gr,Anaer choline gr early
O=c1[nH]cccc1-c1nc(-c2cccc(Cl)c2)no1,i,0.35
Cn1c(=O)n(C)c2cc(S(=O)(=O)Nc3ccc(F)c(F)c3)ccc21,i,0.54
CCSc1nccc2c1ccn2CC(=O)NCc1ccc(CC)cc1,i,0.57
COc1ccc(-c2cc3c(=O)n(CC(=O)NCc4ccc5c(c4)OCO5)ccn3n2)cc1,i,1.24
Cc1ccn2c(=O)c(NC(=O)c3ccc(Br)cc3)c(C)nc2c1,i,0.73
O=C(O)c1cc(N2CCN(CC(=O)N3CCCCC3)CC2)ccc1NC(=O)C1CC1,i,-0.44
COc1ccc(NC(=O)c2nnc(COCC(=O)NCc3cccc(Cl)c3)s2)cc1,i,0.32
O=c1c2ccccc2c(-c2nc(-c3ccccn3)no2)nn1-c1ccc(Br)cc1,i,0.17
C=CCn1c(SCC(=O)c2ccc(C)cc2)nc2sc(CC)cc2c1=O,i,0.11
Nc1nc(Cl)nc2c1ncn2C1OC(CO)C(O)C1O (stereo unspecified),i,-1.9
Cc1oc2ncn(Cc3cc(=O)n4ccccc4n3)c(=O)c2c1C,i,-0.8
Cc1nc(CNC(=O)[C@H]2CSCN2S(=O)(=O)c2ccc(C(C)C)cc2)cs1,i,0.23
Cn1c(=O)c2ccc(C(=O)NC3CCCC3)cc2n2c(SCC(=O)c3ccc(F)cc3)nnc12,i,-0.69
CCCN(CCC)C(=O)Cn1ncn2c(cc3ccccc32)c1=O,i,0.38
COC(=O)c1ccccc1NC(=O)c1ncoc1-c1cccc(Cl)c1,i,-0.98
O=C(Nc1cc(F)c2nc(N3CCOCC3)ccc2c1)C1CCCCC1,i,0.18
CCCNC(=O)c1ccc2c(=O)n(-c3ccc(F)cc3)c(SCC(=O)c3c[nH]c4ccccc34)nc2c1,i,2.75
CN(C)CCN1C(=O)CCC1(C)C(=O)NC1CCCC1 (stereo unspecified),i,0.08
Nc1cc(C(Cl)=C(Cl)Cl)c(S(N)(=O)=O)cc1S(N)(=O)=O,i,0.1
O=C(OCC1CCCO1)c1ccc2c(c1)N(Cc1ccccc1F)C(=O)c1ccccc1S2(=O)=O (stereo unspecified),i,0.1
CCCN(CCC)C(=O)C1CCCN(c2ccc(-c3ccccc3)nn2)C1 (stereo unspecified),i,-0.31
Cc1cc(C2CCCN2C(=O)Nc2ccccc2)no1 (stereo unspecified),i,-0.23
COc1ccc(NC(=O)CSc2nccc3c2ccn3Cc2ccc(F)cc2)cc1OC,i,-0.96
O=C(c1cn(-c2cc(N3CCSCC3)ncn2)cn1)N1CCC2(CC1)OCCO2,i,-1.09
O=S(=O)(NCC(c1ccccc1)N1CCC(O)CC1)c1ccc(Cl)cc1 (stereo unspecified),i,-1.3
Cn1c(SCC(=O)NCc2ccccc2Cl)nc2cc(-c3ccccc3)sc2c1=O,i,-0.24
COCCCNC(=O)c1cc(-c2ccccn2)nc2ccc(S(=O)(=O)N3CCOCC3)cc12,i,0
CCOC(=O)c1c(NC(=O)CSc2nnc(CNC(=O)c3cccc(C)c3)n2C)sc2c1CCCCC2,i,2.11
O=C(Nc1c(C(=O)NCCc2ccccc2)[nH]c2ccc(F)cc12)c1ccccc1,i,1.41
O=c1cc(CN(Cc2ccccc2)Cc2ccc(F)cc2)nc2sc(-c3ccccc3)nn12,i,1.13
COc1ccc(CC(C)NCC(O)c2ccc(O)c(NC=O)c2)cc1 (stereo unspecified),i,0.34&-0.58
COc1cccc(NC(=O)CN2CCCn3nc(C)cc32)c1,i,-0.02
CCn1nc(C)c2c1c(=O)n(Cc1ccccc1)c(=O)n2CC(N)=O,i,-1.32
COc1ccc(CNC(=O)C2(C)Cc3ccccc3C(=O)N2C2CC2)cc1 (stereo unspecified),i,-1.13
O=C(CCC(=O)Nc1noc2ccccc12)Nc1ccc(F)cc1,i,-0.74
O=C1CC(c2nc(Cn3c(=O)oc4ccccc43)no2)CN1c1ccccc1 (stereo unspecified),i,0.3
Cc1cc(C)cc(Nc2c3c(nc4nc(C)nn24)CCC3)c1,i,-0.13
Cc1ccc(Cl)cc1NC(=O)CN1C(=O)CCCc2cc(S(=O)(=O)N3CCCC3)ccc21,i,0.23
O=c1[nH]nc(SCc2nc(-c3cccs3)no2)n2nc(-c3cccs3)cc12,i,0.38
CCNC(=O)N1CCCC(c2cccc(C(=O)NCCN3CCCCC3)c2)C1 (stereo unspecified),i,0.53
Cc1occc1-c1nnc2sc(-c3cccnc3)nn12,i,0.92
CCn1c(Cn2cccn2)nc2cc(NC(=O)c3ccccc3)ccc21,i,0.26
Cc1cc(C(=O)NCCCN2CCOCC2)no1,i,-1.45
COc1ccnc2c1c(=O)n(CC(=O)N1CCCc3ccccc31)c(=O)n2C,i,0.31
CCOCCCNC(=O)c1cc(=O)n(CC)c2c1c(=O)n(CC)c(=O)n2C,i,-0.07
COCc1nc2ccccc2n1CCOc1ccccc1C,i,-1.27
O=C(CSCc1cc(=O)n2[nH]cnc2n1)Nc1ccccc1,i,-0.44
CCN(c1nc(N)c(C(=O)N=C(N)N)nc1Cl)C(C)C,i,0.65
Cc1noc(C)c1C1CCCN1Cc1ccc(F)cc1 (stereo unspecified),i,-1.36
Cc1nc2sccn2c(=O)c1NC(=O)c1ccc(Cl)cc1,i,-0.05

Continued:
Molecule,Anaer choline gr,Anaer choline gr early
CNCCC(Oc1ccccc1OC)c1ccccc1 (stereo unspecified),i,0.45&-1.41&0.18&-0.71
O=C1COc2ccc(Cl)cc2N1Cc1nc(Cn2cnc3ccccc3c2=O)no1,i,0.25
CC(C)NC(=O)c1cn2c(n1)COCC2,i,0.62
Cc1ccc(NC(=O)C2CCN(S(=O)(=O)c3ccc4c(c3)C(C)(C)C(=O)N4C)CC2)cc1,i,-0.82
CCOc1ccc2nc(S(N)(=O)=O)sc2c1,i,-0.35

Reprinted at random: three entries already listed.
Molecule,Anaer choline gr,Anaer choline gr early
CC(C)NC(=O)c1cn2c(n1)COCC2,i,0.62
Cc1ccc(NC(=O)C2CCN(S(=O)(=O)c3ccc4c(c3)C(C)(C)C(=O)N4C)CC2)cc1,i,-0.82
CNCCC(Oc1ccccc1OC)c1ccccc1 (stereo unspecified),i,0.45&-1.41&0.18&-0.71
